# BJeLR lethal: kills HRASV12-expressing BJeLR cells. AID 1554. actives 0.17% (n = 300,000). inhibition, % (no concentration beside the values). BJeLR (HRASV12) viability, CellTiter-Glo ATP luminescence, 48 h; reference of the scale not given here;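 active = replicate mean above 50%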;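 also: 50 nL library stock added to about 25 µL; numbers are from one replicate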
# Mtb hypoxia inh: Mtb hypoxia fluorescent reporter inhibition. M. tuberculosis hypoxia-regulated fluorescent reporter, fluorescence. fluorescence inhibition, % (test concentration not listed). actives 0.1% (n = 300,000);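 active = 35 to 45% if threefold the growth effect, above 45% if 1.5-fold the growth effect; inactive = the rest, general growth blockers included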;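 also: wells of about 50 µL received 100 nL stock; 0% = vehicle wells and 100% = reference inhibitor wells; whole bacteria with a GFP reporter of the hypoxia response; strong numbers were not always called active; many hits fall short of the cut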
# ugtP null kill: growth inhibition of S. aureus ugtP deletion strain; actives 0.54% (n = 330,000); growth inhibition, % (no concentration beside the values); S. aureus RN4220 ugtP deletion, OD600 growth, 16 h; some inactives read as strong as hits;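 active = z-score under -3 and OD600 up to 0.15 on both plates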;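 also: plate controls were untreated wells for no effect and antibiotic for full effect; wells of about 80 µL received 100 nL stock; the first replicate is given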
# PrP 5UTR inh: suppresses PrP 5' UTR mRNA reporter expression; inhibition, % (concentration not given with the values); actives 0.35% (n = 340,000); cell-based PrP 5' UTR mRNA reporter, plate reader;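 active = every replicate at 50% or more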;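 also: 0 = median of the neutral control wells; tested in H4 reporter cells; numbers are from one replicate; inactives centre near -14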
# Bead autofluor: compound fluorescence in toxin protease inhibitor counterscreen; compound autofluorescence counterscreen, microsphere flow cytometry; stronger effect = higher value; fluorescence intensity (no concentration beside the values); actives 3.1% (n = 360,000);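 active = at least 3 SD above the mean of all compounds, about 16000 in these data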;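 also: 100 nL of 1 mM stock went into each well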
# Sa RN4220 lethal: kills Staphylococcus aureus RN4220. S. aureus RN4220 growth, OD600, 16 h. inhibition, % (test concentration not listed). actives 0.33% (n = 330,000). AID 1259311;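 active = z-score of -3 or lower and OD600 up to 0.18 on both plates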;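 also: plate controls were untreated cells for no effect and reference antibiotic for full effect; stock transfer was 100 nL into about 80 µL; one replicate is shown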
# Mtb hypoxia inh growth: second read-out of Mtb hypoxia inh, no call of its own (marks repeat the call); growth inhibition, %; measured here: M. tuberculosis growth (absorbance);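 0% = vehicle and 100% = reference antibiotic; read after six days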
# * hit, by the source's call; . = no result given; & = joins results of further samples. The order is random; any-hit rate near 3.9%.
SMILES,BJeLR lethal,Mtb hypoxia inh,Mtb hypoxia inh growth,ugtP null kill,PrP 5UTR inh,Bead autofluor,Sa RN4220 lethal
Cc1ccc(-c2n[nH]c(=O)c3ccccc23)cc1S(=O)(=O)N(C)CCO,-3.3,4.2,2.9,-3.2,-20.3,5365,7.7
O=C1CCCCCC1=NNc1ccc(OCc2ccccc2)cc1,.,5.9,6.4,14.1,.,.,2.3
COc1ccc2c(c1)N(C(=O)CSc1n[nH]c(C)n1)C(C)(C)C=C2C,2.0,.,.,-6.7,1.7,3964,-1.1
CCC(C)(NC(=O)c1cccc(N2C(=O)CSC2c2ccccc2)c1)C(=O)Nc1ccccc1C (configuration not stated),-10.0,16.8,1.7,7.8,-26.3,2975,1.9
COc1ccc(/C=C(\C#N)C(=O)NCc2ccccc2)cc1O,1.0,-5.4,7.1,-7.2,0.1,3850,-1.5
O=C(NN=Cc1ccc2c(c1)OCO2)c1cc2ccccc2o1,.,-2.7,2.5,-10.3,.,.,0.8
COc1ccc(C2CC(=O)C=C(c3cc(OC)ccc3OC)C2)cc1 (configuration not stated),.,8.1,11.9,16.1,.,.,11.5
CCCCOc1ccc(-c2c(C#N)c(N)[nH]c(=S)c2C#N)cc1,-0.7,-6.4,-1.2,5.8,.,6016,4.8
COc1ccc2c3n(nc2c1)CCN=C3c1ccc(Cl)cc1,.,14.1,5.9,4.0,-28.3,4172,3.9
CN(C)c1ccc(/C=N/n2c(COc3ccccc3)n[nH]c2=S)cc1,-1.2,.,.,.,-4.7,1924,.
Cc1nn(-c2ccccc2)c(N)c1N=O,-0.8,1.4,9.7,3.6,.,5432,2.3
CC(C)(C)OC(=O)N/N=C\c1ccc[nH]1,-6.2,.,.,.,-35.0,4397,.
CN(C)S(=O)(=O)Oc1cccc(C(=O)Nc2ccc(Cl)c(Cl)c2)c1,6.2,-9.2,-1.2,-13.1,-110.2,3197,-3.5
COC(=O)c1cc(S(=O)(=O)Nc2c(C)cccc2C)cn1C,-1.5,5.1,12.2,14.0,-9.0,3955,12.0
O=C(O)CSc1nc2ccccc2n1Cc1ccccc1,-10.0,1.0,-5.8,0.1,3.8,3298,2.3
CC(=O)Nc1ccc(S(=O)(=O)Nc2nc3ccccc3nc2N2CCOCC2)cc1,.,-4.1,0.1,-3.3,-5.0,2818,0.2
COc1ccc(CNc2ccc(-c3ccc(OC)cc3)nn2)cc1,1.1,10.8,10.1,1.3,-47.6,11981,1.6
CCCC(C)NC(=O)Cc1ccccc1 (configuration not stated),1.5,10.6,11.6,7.1,-19.3,3810,4.1
COc1cc(CN2CCN(CCc3ccccc3)C(CCO)C2)cc(OC)c1 (configuration not stated),1.5,1.0,3.9,3.8,-16.9,3836,5.7
COc1cccc(CNC(=O)CCNS(=O)(=O)c2cccs2)c1,-6.3,8.1,4.4,-2.1,-16.8,10351,3.0
CC(C)CC(CO)N1CCNCCC1=O (configuration not stated),.,-8.3,3.6,4.5,.,.,4.1
CCOC(=O)C1=C(C)N=C2SC(C)C(=O)N2C1c1ccc(OC(C)=O)c(OC)c1 (configuration not stated),-9.4,13.1,6.3,-3.6,2.1,.,-0.2
CCCN1CCC(=O)N(CCSc2ccc(C)cc2)CC1,0.9,18.3,7.7,-0.7,-22.0,4117,9.3
COc1ccc(NC(=O)CN(C)C(=O)CCc2c[nH]c3ccccc23)cc1,-4.6,-2.6,0.6,6.0,-0.7,3902,1.5
O=C(COC(=O)C=Cc1cccs1)Nc1cccc(S(=O)(=O)N2CCCC2)c1,.,-4.9,0.3,-4.3,.,.,-1.8

# Entries of single compounds, quoted from the list. Screens in order: BJeLR lethal | Mtb hypoxia inh | Mtb hypoxia inh growth | ugtP null kill | PrP 5UTR inh | Bead autofluor | Sa RN4220 lethal
# `Cc1nn(-c2ccccc2)c(N)c1N=O` is listed with -0.8 | 1.4 | 9.7 | 3.6 | . | 5432 | 2.3
# `CC(C)CC(CO)N1CCNCCC1=O` (configuration not stated) is listed with . | -8.3 | 3.6 | 4.5 | . | . | 4.1
# `COc1ccc2c(c1)N(C(=O)CSc1n[nH]c(C)n1)C(C)(C)C=C2C` is listed with 2.0 | . | . | -6.7 | 1.7 | 3964 | -1.1
# `CC(=O)Nc1ccc(S(=O)(=O)Nc2nc3ccccc3nc2N2CCOCC2)cc1` is listed with . | -4.1 | 0.1 | -3.3 | -5.0 | 2818 | 0.2

# Molecules shown so far that contain a Cl atom (2):
SMILES,BJeLR lethal,Mtb hypoxia inh,Mtb hypoxia inh growth,ugtP null kill,PrP 5UTR inh,Bead autofluor,Sa RN4220 lethal
COc1ccc2c3n(nc2c1)CCN=C3c1ccc(Cl)cc1,.,14.1,5.9,4.0,-28.3,4172,3.9
CN(C)S(=O)(=O)Oc1cccc(C(=O)Nc2ccc(Cl)c(Cl)c2)c1,6.2,-9.2,-1.2,-13.1,-110.2,3197,-3.5

# More results:
SMILES,BJeLR lethal,Mtb hypoxia inh,Mtb hypoxia inh growth,ugtP null kill,PrP 5UTR inh,Bead autofluor,Sa RN4220 lethal
O=C(Cc1ccc(Cl)cc1)NNC1CC(=O)N(c2ccc3ccccc3c2)C1=O (configuration not stated),22.0,6.4,2.0,4.6,-16.6,3740,-0.9
Cc1cccc(OCC(=O)Nc2ccc(NC(=O)c3ccco3)c(C)c2)c1,4.9,8.2,2.1,1.4,-16.9,3926,0.0
COc1ccc(CCCNC(=O)C2CCC(=O)N(Cc3ccc(Cl)cc3)C2)cc1 (configuration not stated),-5.6,3.0,0.0,13.9,2.7,3968,-4.2
COc1ccccc1Oc1nc(C)c(C(C)=O)cc1C#N,-3.8,2.0,4.6,15.6,1.5,3685,7.9
CCCCn1c(N)c(N(CCOC)C(=O)CSc2nnc(-c3ccc(F)cc3)n2N)c(=O)[nH]c1=O,-2.3,6.7,13.8,8.8,-20.6,5380,1.4
CCOc1ccc(CC(=O)NNC(=S)NC)cc1Br,-8.5,17.4,7.5,3.1,.,5479,1.9
O=[N+]([O-])c1cc(S(=O)(=O)N2CCOCC2)ccc1N1CCCC1,-6.1,6.5,-5.7,7.1,-6.5,2215,5.8
COc1ccccc1NC(=O)c1cc(S(=O)(=O)NC2CCCC2)ccc1F,-8.5,13.0,-0.8,-1.4,2.0,4719,-0.8
CCN1CCN(c2nnc(-c3ccc(C)cc3)c3ccccc23)CC1,-2.6,4.2,0.8,16.2,-3.0,3123,2.2
COc1ccc(C=NNC(=O)c2c(C)nc3ccc(Br)cn23)cc1,.,16.0,20.7,-1.2,.,.,-2.9
Fc1ccc(CSc2ncnc3ccccc23)cc1,14.0,17.0,11.7,11.4,-8.5,4316,33.3
O=c1cc(CCl)[nH]c2nc3ccccc3n12,-1.4,2.9,11.3,6.6,-8.2,4720,11.8
O=c1/c(=C/c2cccc3ccccc23)sc2ncnn12,-8.9,.,.,.,-22.9,4260,.
COc1ccc(Cn2c(=O)c3[nH]cnc3n(-c3ccccc3C)c2=O)cc1,2.3,11.6,8.0,6.4,-5.8,3807,4.5
Cc1ccc(C)c(Oc2ncnc(N)c2[N+](=O)[O-])c1,11.5,-7.6,4.0,11.4,-28.9,2060,4.5
CCC(CC)c1nnc(NC(=O)c2cccc(S(=O)(=O)N3CCc4ccccc43)c2)s1,1.0,5.0,13.1,-14.9,-5.5,4512,4.3
CC(C)CN1CCN(Cc2cn(C)c3ccccc23)CC1CCO (configuration not stated),1.7,5.2,7.5,-0.4,-1.1,3926,-0.8
CC(C)COC(=O)n1c(=O)oc2ccc(S(=O)(=O)N3CCCCC3)cc21,2.1,13.2,-1.7,8.1,.,4103,4.2
O=C(C(=O)N1CCN(c2ccc(F)cc2)CC1)c1c[nH]c2ccccc12,9.8,2.2,3.3,7.1,-29.3,4834,14.2
CC(NC(=O)Cn1ccsc1=N)C12CC3CC(CC(C3)C1)C2 (configuration not stated),.,.,.,-3.6,2.4,5556,4.8
O=C(c1cccs1)N(Cc1nc2sc3c(c2c(=O)[nH]1)CCCC3)C1CCCC1,22.4,.,.,-2.7,-22.7,4360,-4.9
CN(C(=O)C(Cl)Cl)c1ccc(OC(=O)c2ccco2)cc1,0.5,13.4,6.3,0.5,-8.5&-9.5,5394,6.9
O=C1Nc2ccccc2C1=NN=Cc1ccc(-c2ccc([N+](=O)[O-])cc2)o1,.,17.4,22.1,2.4,.,.,0.0
Cc1ccc(/C=C2/C(=N)N3N=C(CC(=O)N4CCCC4)SC3=NC2=O)o1,-1.2,3.7,9.4,5.5,-4.1,4745,3.6
CN(C)C(CNC(=O)c1ccc(S(=O)(=O)Nc2ccccc2)cc1)c1ccco1 (configuration not stated),-13.3,8.0,-2.0,2.0,-16.0,.,1.3
SMILES,BJeLR lethal,Mtb hypoxia inh,Mtb hypoxia inh growth,ugtP null kill,PrP 5UTR inh,Bead autofluor,Sa RN4220 lethal
COc1ccccc1NS(=O)(=O)c1ccc(C(=O)NCc2ccncc2)cc1,.,-0.9,6.7,2.0,-14.5,3476,2.6
CCCCc1cc(=O)oc2cc(OCC(=O)N3CCOCC3)ccc12,-0.5,6.2,9.1,7.3,-23.0,4005,-8.4
CCN1C(=O)/C(=C/c2nc3ccccc3c(=O)n2-c2ccccc2)c2ccccc21,-1.4,1.1,12.7,4.3,-2.3,3129,10.6
COc1ccc(CC(=O)Nc2nc(-c3ccccc3)c(C(C)=O)s2)cc1OC,-4.4,-1.7,-4.3,6.6,6.7,3593,7.0
CC(=O)NC(C)c1nc2ccccc2n1CC(=O)N1C(C)CCCC1C (configuration not stated),-3.5,2.6,-0.8,3.0,-18.3,3718,8.7
O=C(c1ccc2c3c(cccc13)C(=O)N(O)C2=O)N1CCCCC1,-4.6,.,.,-5.4,-13.2,3121,-16.7
COc1ccc(NC(=O)ON=Cc2c(C)nn(C(C)(C)C)c2C)cc1,.,-2.9,-6.0,4.3,.,.,1.7
COc1cc(-c2cccc([C@H]3[C@@H]4C=CC[C@@H](C)[C@@H]4C(=O)N3Cc3ccccc3)c2)cc(OC)c1OC,.,-1.9,8.4,-4.9,-13.3,3410,11.1
CC1=Cc2ccccc2C(C#N)N1C(=O)c1ccccc1 (configuration not stated),1.0,0.9,-0.9,-1.0,-16.2,2654,-0.2
Oc1ccc(C[C@H]2NCCc3cc(O)c(O)cc32)cc1O,10.1,12.0,-4.4,-8.0,.,3284,24.8
Cc1cc(C)nc(SCc2c(F)cccc2Cl)n1,-6.3,16.0,4.7,4.0,-19.5,4223,-4.5
COc1cc(C=Cc2ccc3cccc([N+](=O)[O-])c3n2)ccc1OCC#N,.,1.3,-1.1,-14.7,.,.,6.8
O=c1c2ccccc2nc(SCc2cccc(F)c2)n1-c1cccc(S(=O)(=O)N2CCCC2)c1,-0.8,6.8,5.3,93.7*,-19.7,2567,96.6*
Cc1ccc(NC(=S)N2CCC(c3nc4ccccc4s3)CC2)cc1,2.6,-0.2,0.8,-10.9,-14.5,9118,-0.6
Cc1cc(C(=O)CSc2nc3ccccc3c(=O)[nH]2)c(C)n1C,5.9,4.0,10.5,-5.2,-56.7,2823,3.6
O=C(c1ccco1)N1CCN(C(c2ccccc2F)c2nnnn2Cc2cccs2)CC1 (configuration not stated),7.1,.,.,8.5,-11.4,4494,5.0
Cc1ccc(Nc2nnc(C3C(=O)N(C)C4(C)CC3c3cc(Br)ccc3O4)s2)cc1 (configuration not stated),-3.1,6.9,-11.7,-14.5,-12.4,2107,2.2
Cc1cccc(C(=O)Nc2ccc(C(=O)/C=C/c3cccnc3)cc2)c1,-5.7,2.9,1.0,5.0,-29.0,2579,5.7
Cc1[nH]c2ccccc2c1C(=O)CN1CC(C)CC(C)C1 (configuration not stated),7.0,-2.2,-2.0,-1.4,-14.1,4370,2.3
CCNC(=O)CCCOc1ccc(Cl)cc1Cl,10.2,1.2,0.5,0.3,-14.9,10207,3.9
CN(C)/C=C(\C(=O)c1ccccc1)c1nnnn1-c1ccccc1,-4.4,-15.1,-0.3,1.2,-32.5,6351,6.7
Cc1ccc(C(=O)c2c[nH]c(C(=O)NCc3cccnc3)c2)cc1,-6.8,5.2,10.4,8.0,-7.0,4322,7.1
C=CCNc1nc(N)c([N+](=O)[O-])c(N2CCCCCC2)n1,4.0,15.4,0.4,22.7,-30.5,3943,25.7
Cc1cc(C(F)(F)F)n2[nH]c(=O)c(N=Nc3ccccc3)c2n1,-4.0,22.5,2.6,13.4,-5.5,3598,2.4
CC1CN(C(C)CO)C(=O)c2cccc(NS(=O)(=O)c3ccccc3)c2OC1CN(C)CC1CC1 (configuration not stated),.,5.0,0.3,0.7,.,.,3.3
C/C(=N\NC(=O)c1cccc(N2CCCC2=O)c1)c1ccc(N)cc1,1.8,.,.,.,-28.9,4817,.
